# Mtb growth: Mycobacterium tuberculosis H37Rv growth inhibition, putative kinase inhibitor library, confirmatory dose response (AID 2842). M. tuberculosis H37Rv growth inhibition; higher % means a stronger effect; some inactives read as strong as hits. one-dose inhibition, % at 10 µg/mL; IC90 in µg/mL for titrated hits. 24,000 tested, 5.2% active;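 active means confirmed in a dose series; about a fifth of its hits are not listed in these tables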;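 further: bacteria incubated one week before Alamar blue readout; 0% = bacteria only wells and 100% = bacteria with high antibiotic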
# An asterisk follows results filed as active.
nr	compound	Mtb growth
1	c1ccc(-c2csc(Nc3nc4cc5c(cc4s3)OCO5)n2)nc1	1.8µg/mL*
2	COc1ccc(S(=O)(=O)c2nnn3c2nc(Nc2ccccc2)c2ccccc23)cc1	5%
3	NC(=O)c1ccsc1NC(=O)c1cc2c(ccc3ccccc32)oc1=O	8%
4	Cc1nc2c(ccc3nc(NC(=O)/C=C/c4cccs4)sc32)s1	-6%
5	Cc1ccc(N2C(=O)NC3CC2(C)Oc2ccccc23)cc1Cl (stereo not given)	1%
6	O=C(CCCc1nnc2c(=O)n(-c3ccc(Cl)cc3)ccn12)N1CCN(c2ccccc2)CC1	-2%
7	CCCSc1nc2c(c(=O)[nH]1)C(c1ccccc1)C1=C(CC(C)(C)CC1=O)N2 (stereo not given)	-11%
8	O=C(Nc1c2c(nn1-c1ccc(F)cc1)CS(=O)C2)c1ccccc1Cl (stereo not given)	0%
9	CCc1nnc(NC(=O)CSc2nccn2-c2ccc(F)cc2)s1	-1%
10	N=C1N=C(N)C(Cc2ccccc2)S1 (stereo not given)	-11%
11	O=C(Nc1nc(-c2nc3ccccc3s2)cs1)c1ccc(C(=O)c2ccccc2)cc1	2%
12	Cc1ccc(NC(=O)CSc2cn(Cc3ccccc3C)c3ccccc23)c(C)c1	0%
13	CC(C)Sc1nc2c(c(=O)[nH]1)C(c1ccccc1)C1=C(CC(C)(C)CC1=O)N2 (stereo not given)	25%
14	Cc1ccc2oc(=O)c(-c3nc4ccc([N+](=O)[O-])cc4[nH]3)cc2c1	3%
15	Cc1c(Cl)cccc1Nc1nccc(=O)[nH]1	15%
16	Cn1c(=O)c(C(=O)NCCc2c[nH]c3ccccc23)cc2cccnc21	3%
17	Cc1cc(C)cc(NC(=O)CSc2nccn(-c3cccc(F)c3)c2=O)c1	1%
18	C=CCn1c(=O)c2c(nc3n2CC(C)CN3c2cccc(OC)c2)n(C)c1=O (stereo not given)	0%
19	COc1ccccc1-c1nnc(NC(=O)c2ccccc2)o1	82%
20	Cc1ccc(C(=O)Nc2nnc(-c3cc(Cl)ccc3Cl)o2)cc1C	77%
21	O=C(Cc1cccs1)Nc1nnc(-c2ccc(Br)cc2)s1	-3%
22	CCOc1ccc(C(=O)c2cn(Cc3ccccc3)c3c(F)cc(F)cc3c2=O)cc1	19%
23	O=C(CNc1ccccc1)Nc1ncc(Cc2ccccc2F)s1	-5%
24	O=C(CSc1ncnc2c1nnn2Cc1ccc(F)cc1)Nc1cccc(F)c1	2%
25	CC(C)C(=O)Nc1nc(-c2ccc(-c3ccccc3)cc2)cs1	6%
26	O=c1[nH][nH]c(=O)c2ncccc12	2%
27	CC1(C)CC(=O)c2sc(NC(=O)c3ccc(Oc4ccccc4)cc3)nc2C1	9%
28	O=C(Nc1c(C(=O)Nc2ccccc2F)oc2ccccc12)c1ccc(S(=O)(=O)N2CCCC2)cc1	7%
29	COc1ccc(Cl)cc1NC(=O)CSc1ccc2nnc(-c3cccc(F)c3)n2n1	2%
30	O=C(CSc1ccc2nnc(-c3cccnc3)n2n1)NCc1ccc2c(c1)OCO2	0%

# Taken from above:
# no. 21 in Mtb growth is listed with -3%
# no. 24 in Mtb growth is listed with 2%
# no. 25 in Mtb growth is listed with 6%
# no. 27 in Mtb growth is listed with 9%

# Other results follow.
nr	compound	Mtb growth
31	O=C(Nc1nc2ccc3ccccc3c2s1)c1c(F)cccc1F	40%
32	Cn1c(=O)c2c(nc(N3CCN(CCO)CC3)n2CCSc2ncccn2)n(C)c1=O	1%
33	Cc1ccc(C(=O)Nc2nc(-c3cc4ccccc4oc3=O)cs2)c(C)c1	3%
34	COc1cccc(C2NC(=O)NC(C)=C2C(=O)Nc2ccc(C)cc2)c1 (stereo not given)	0%
35	Cc1cc(C)c(NC(=O)CSc2nc(-c3ccccc3Cl)nc3c2Cc2c(CO)cnc(C)c2O3)c(C)c1	-5%
36	CCOC(=O)c1cc([N+](=O)[O-])sc1NC(=O)c1ccccc1Br	-2%
37	COc1ccc(OC)c2sc(N(Cc3ccncc3)C(=O)COc3ccc(Cl)cc3)nc12	-10%
38	CCCCN(CCCC)c1ncnc2nc[nH]c12	66%
39	CCn1c(SCC(=O)NCc2ccc(F)cc2)nc2c(c1=O)SC(C)C2 (stereo not given)	9%
40	O=C(Nc1c(C(=O)Nc2cccc(Cl)c2)oc2ccccc12)c1ccc(F)cc1	10%

# Shown field by field: 3 of the compounds above
[38] CCCCN(CCCC)c1ncnc2nc[nH]c12
  Mtb growth = 66%

[32] Cn1c(=O)c2c(nc(N3CCN(CCO)CC3)n2CCSc2ncccn2)n(C)c1=O
  Mtb growth = 1%

[33] Cc1ccc(C(=O)Nc2nc(-c3cc4ccccc4oc3=O)cs2)c(C)c1
  Mtb growth = 3%

# (more compounds)
nr	compound	Mtb growth
41	COc1cc2c(=O)c(S(=O)(=O)c3ccc(F)cc3)cn(Cc3ccc(Cl)cc3)c2cc1OC	9%
42	O=c1c2cnn(CCO)c2ncn1Cc1c(F)cccc1Cl	2%
43	O=C(CCCCCn1c(=S)[nH]c2cc3c(cc2c1=O)OCO3)NCCc1ccc(Cl)cc1	-22%
44	Cc1ccccc1-n1nc2c(c1NC(=O)COc1ccc3ccccc3c1)CSC2	5%
45	Cc1cc(NC(=O)CSCc2ccco2)no1	-7%
46	CCn1c(SCc2ccc(Cl)cc2)nc2c1c(=O)[nH]c(=O)n2C	72%
47	O=C1NC(c2c(F)cccc2Cl)C(C(=O)c2ccccc2)C(O)(C(F)(F)F)N1 (stereo not given)	-5%
48	CC(C)Cn1c(N2CCNCC2)nc2c1c(=O)[nH]c(=O)n2C	11%
49	N#Cc1nc(-c2ccccc2)oc1NCc1ccco1	18%
50	Nc1ncnc(Nc2ccccc2F)c1[N+](=O)[O-]	2%
51	O=C(Nc1nc(-c2ccc3c(c2)OCCO3)cs1)c1cccc(C(F)(F)F)c1	14µg/mL*
52	O=C(Nc1nnc(-c2ccc(Br)cc2)o1)c1ccccc1F	4.4µg/mL*
53	Cc1ccc(C)c(S(=O)(=O)Nc2cc(Sc3ncn[nH]3)c(O)c3ccccc23)c1	-2%
54	Cc1ccc(NC(=O)Cn2c(=O)n(Cc3ccc4c(c3)OCO4)c(=O)c3oc4ccccc4c32)cc1	-4%
55	CCOC(=O)c1nn(-c2ccc(C)cc2)c(=O)c2c(NC(=O)c3ccc4ccccc4c3)scc12	-3%
56	Cc1ccccc1C(=O)Nc1cc(C)c2c(=O)oc3ccccc3c2n1	-6%
57	Cc1ccc2nc(NC(=O)c3ccc4c(c3)CCCC4)sc2c1	4%
58	CCOC(=O)N1CCc2c(sc(NC(=O)CCSc3ccccc3)c2C#N)C1	8%
59	O=C1CC(NS(=O)(=O)c2ccc([N+](=O)[O-])cc2)CN1c1cccc(F)c1 (stereo not given)	-3%
60	CCOc1ccc(-n2c(SCC(=O)Nc3nnc(C)s3)nc3c(c2=O)SCC3)cc1	8%
61	O=C1CC(c2nc3ccccc3n2Cc2ccccc2)CN1Cc1ccccc1 (stereo not given)	10%
62	O=C1NC(=O)C(=Cc2ccc(-c3cccc([N+](=O)[O-])c3)o2)C(=O)N1	-1%
63	CCOc1ccc(C(=O)Nc2c(N)nc(SC(C)C(=O)O)[nH]c2=O)cc1 (stereo not given)	-8%
64	CCOC(=O)C1CCN(C(c2ccc(F)cc2)c2sc3nc(C)nn3c2O)CC1 (stereo not given)	-9%
65	Cc1cc(C)cc(NC(=O)CSc2nc3c(c(=O)n2Cc2ccccc2)SC(C)C3)c1 (stereo not given)	-3%
66	O=C1Nc2c(S(=O)(=O)N3CCCCC3)cc(S(=O)(=O)N3CCCCC3)c3cccc1c23	9%
67	COc1ccccc1OCCCn1c(CO)nc2ccccc21	14%
68	O=C(Nc1ccccc1)c1oc2ccccc2c1NC(=O)C1CCCCC1	3%
69	Cc1nnc(NC(=O)c2cc(Br)ccc2Cl)s1	-4%
70	O=C(CSc1cn(Cc2cccc(F)c2)c2ccccc12)Nc1nc2ccccc2s1	39%
71	Cn1c(=O)[nH]c(=O)c2c1nc(SCc1ccc(Cl)cc1)n2CC(N)=O	0%
72	COc1ccc(S(=O)(=O)c2cn(Cc3ccc(C)cc3)c3ccc(F)cc3c2=O)cc1	-5%
73	O=C(Cc1csc(NC(=O)c2ccc3c(c2)OCO3)n1)NCc1cccnc1	-7%
74	Cn1c(=O)c2c(SCc3ccc(F)cc3)nc(C3CC3)nc2n(C)c1=O	-5%
75	Cc1nnc(SCCn2c(N3CCC(Cc4ccccc4)CC3)nc3c2c(=O)[nH]c(=O)n3C)s1	54%
76	COc1cccc2sc(Nc3nc(C(C)(C)C)cs3)nc12	20%
77	CCCCCn1c(SCc2ccc(F)cc2)nc2c1c(=O)[nH]c(=O)n2C	0%
78	CCCc1cc2c(=O)c(-c3csc(C)n3)coc2cc1OC(C)=O	-12%
79	CC(C)N1CCc2c(sc(NC(=O)c3cccc4ccccc34)c2C#N)C1	5%
80	COc1ccc(NC(=O)CSc2nc(N)c(NC(=O)c3ccco3)c(=O)[nH]2)c(OC)c1	-4%
81	CC(C)(C)c1ccc(C(=O)Nc2nc(-c3ccc4c(c3)OCCO4)cs2)cc1	52%
82	O=C(Nc1ccc(F)cc1)C(=O)c1c(O)[nH]c2ccc([N+](=O)[O-])cc12	47%
83	O=C1CC(c2nc3ccccc3n2CCc2ccccc2)CN1c1ccccc1Br (stereo not given)	4%
84	Cc1ccc(CC(=O)N(CCCn2ccnc2)c2nc3ccccc3s2)c(C)c1	4.8µg/mL*
85	CCOc1ccc(-c2nn(-c3ccccc3)cc2/C=C(\C#N)C(=O)NCCCOC)cc1Cl	-4%
86	Cn1c(SCC(N)=O)nnc1-c1cccnc1	-10%
87	CCc1ccc(NC(=O)CSc2nccn(-c3ccc(F)cc3)c2=O)cc1	-9%
88	COCCn1c(SCc2cccnc2)nc2c(c1=O)SC(C)C2 (stereo not given)	-6%
89	COc1ccc(-c2nnc3c4cc(OC)ccc4n(Cc4ccc(C)cc4)cc2-3)cc1	-3%
90	COc1cccc2sc(Nc3sc4c(c3-c3nc5ccccc5s3)CCC(C)C4)nc12 (stereo not given)	2%

# Exported field by field: part of the list above
87. CCc1ccc(NC(=O)CSc2nccn(-c3ccc(F)cc3)c2=O)cc1
  Mtb growth: -9%
88. COCCn1c(SCc2cccnc2)nc2c(c1=O)SC(C)C2 (stereo not given)
  Mtb growth: -6%
89. COc1ccc(-c2nnc3c4cc(OC)ccc4n(Cc4ccc(C)cc4)cc2-3)cc1
  Mtb growth: -3%
90. COc1cccc2sc(Nc3sc4c(c3-c3nc5ccccc5s3)CCC(C)C4)nc12 (stereo not given)
  Mtb growth: 2%

# Remaining list, next part
nr	compound	Mtb growth
91	CCOc1ccc(-c2nnc3c4cc5c(cc4n(Cc4cccc(F)c4)cc2-3)OCO5)cc1	54µg/mL*
92	O=C(Nc1nnc(-c2ccc(Cl)s2)o1)c1ccc([N+](=O)[O-])o1	0.85µg/mL*
93	COc1ccccc1-n1c(CNC(=O)c2ccccc2F)n[nH]c1=S	-8%
94	O=C(CC12CC3CC(CC(C3)C1)C2)Nc1nnc(-c2ccccc2)s1	7%
95	CCOC(=O)c1[nH]c2ccccc2c1NC(=S)Nc1ccc(OCC)cc1	74%
96	COc1ccc(C(=O)Nc2c(N)nc(SCC(=O)N3CCC(Cc4ccccc4)CC3)[nH]c2=O)cc1OC	52%
97	O=C(CN1C(=O)/C(=C\c2cccs2)SC1=S)Nc1ccc(C(=O)O)c(O)c1	-3%
98	O=C(NC1CCCC1)c1cnc2n(c1=O)CCS2	-3%
99	O=C(NNc1ncnc2c1cnn2-c1ccc(F)cc1)c1ccc(Cl)cc1Cl	19%
100	CCCn1cc(C(=O)Nc2ccc(C)c(F)c2)c2nn(-c3ccccc3)c(=O)c-2c1	-4%
101	O=C(Nc1nccs1)c1cccc2c1-c1ccccc1C2=O	-16%
102	CN1CCc2c(sc(NC(=O)Cc3ccccc3)c2C#N)C1	-5%
103	CCOC(=O)c1nn(-c2ccc(C(F)(F)F)cc2)c(=O)c2c(NC(=O)c3cccc([N+](=O)[O-])c3C)scc12	10%
104	CCc1ccc(NC(=O)C(=O)Nc2cc3c4c(c2)CCC(=O)N4CCC3)cc1	7%
105	COc1ccc2c(c1)c1nnc(-c3ccc(C)cc3)c-1cn2Cc1cccc(C)c1	35%
106	COc1ccc(OC)c(-c2nnc(NC(=O)CCc3ccccc3)s2)c1	-6%
107	CC(=O)Nc1ccc(-n2c(O)c(C3=c4cc(F)ccc4=NC3=O)sc2=S)cc1	-10%
108	O=C(Cc1ccccc1)Oc1coc(CSc2nnc(NC(=O)C3CC3)s2)cc1=O	-5%
109	Cc1ccc(NC(=O)C(C)Oc2ccc3c(C)cc(=O)oc3c2)cc1C (stereo not given)	3%
110	O=C1NC(=Nc2cccc(Cl)c2)S/C1=C/c1ccc(F)cc1	13%
111	Cc1c(Cl)cccc1NC(=O)CSc1nc2c(c(=O)[nH]1)CN(Cc1ccc(F)cc1)CC2	-2%
112	CSc1ccccc1-c1nnc(NC(=O)c2ccc(C#N)cc2)o1	-3%
113	COc1cc(OC)cc(C(=O)Nc2nc(-c3ccc(C#N)cc3)cs2)c1	-2%
114	CSc1cccc(-c2nnc(NC(=O)c3cccc([N+](=O)[O-])c3)o2)c1	81%
115	CCc1nnc(NC(=O)CSc2ncnc3c2cnn3-c2cccc(Cl)c2)s1	-6%
116	Cc1ccc(-n2ncc3c(=O)n(CC(=O)NCc4ccc5c(c4)OCO5)cnc32)cc1	0%
117	CCOc1ccc(C(=O)Nc2nc3ccc(C(=O)OC)cc3s2)cc1	31%
118	Cc1ccc(NC(=O)CSC2=C(C#N)C(c3ccccc3C(F)(F)F)C3=C(CCCC3=O)N2)c(C)c1 (stereo not given)	4%
119	CCSc1nnc(NC(=O)c2cccc3ccccc23)s1	3%
120	Fc1ccc(Nc2ncnc3nc[nH]c23)cc1	17%
121	NC(=O)COc1cc2oc(=O)cc(-c3ccccc3)c2cc1Cl	1%
122	CCOC(=O)c1nn(-c2ccc(C)cc2)c(=O)c2c(NC(=O)c3ccccc3)scc12	-12%
123	O=C1c2cccc3cccc(c23)C(=O)N1CCSc1nc2sc3c(c2c(=O)[nH]1)CCCC3	56%

# The list is partial, so the mix of outcomes need not match the whole.
